HIV Env fusion – inhibitors of HIV-1 Env-driven cell-cell fusion, primary screen, HeLa-JRFL effector, CEM21 target cells, luciferase. inhibition, % at 12.3 µM. actives 1.1% (n = 360,000). AID 651610, 2012;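 active = mean replicate inhibition score of at least 50 and every replicate individually at or above 50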;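 note: 0% = plate neutral controls and 100% = maraviroc near 300 nM; one replicate is shown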
eIF4H FP inh – human eIF4H binding inhibitors, primary screen, translation initiation inhibitor project, biochemical, uHTS, fluorescence polarization; inhibition, % at 35 µM; eIF4H fluorescence polarization binding assay; Eukaryotic translation initiation factor 4H (Homo sapiens), Q15056; AID 2012, 2009; actives 0.94% (n = 290,000);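 active = 50% or more with normal probe brightness, or confirmed in later tests; about a fifth of its hits are not listed in these tables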;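 note: calls also rest on retests at 20 µM and on dose response follow-up; 0% = protein and probe with vehicle and 100% = probe without protein; strong numbers were not always called active; many hits fall short of the cut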
CSC inhib – cancer stem cell viability inhibitors, primary screen, luminescence; cancer stem cell-like cells viability; actives 1.1% (n = 300,000); inhibition, % at 7.5 µM;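 active = mean at 75% or more and at least half the replicates too; tested in HMLE shEcad cells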;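 note: 0% = median of negative and 100% = median of positive control wells; the first replicate is given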
Yeast UUG start – modulators of yeast start codon fidelity, primary screen, whole organism, S. cerevisiae, single point, plate reader; S. cerevisiae UUG-firefly luciferase reporter, luminescence/redox ratio; activity score, % at 18.7 µM; actives 0.13% (n = 350,000); AID 602363, 2012;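 active = replicate mean at a twofold rise or more, about +100% in these data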;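 note: firefly luciferase made from a UUG start codon reports start codon fidelity; reporter light over untreated wells divided by growth signal over untreated wells; some hits fall short of that in this replicate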
PABP polyA inh – PABP poly(A) RNA binding inhibitors, primary screen, biochemical, fluorescence polarization, uHTS; Polyadenylate-binding protein 1 (Homo sapiens), P11940; inhibition, % at 35 µM; actives 1% (n = 290,000); AID 2014, 2009;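 active = 50% or more with normal probe brightness, or confirmed in later tests; about a fifth of its hits are not listed in these tables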;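 note: calls also rest on retests at 20 µM and on dose response follow-up; controls were probe without protein and protein plus probe with vehicle; some compounds called inactive have numbers as strong as hits; many hits fall short of the cut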
Target sequence (P11940 whole entry, looked up): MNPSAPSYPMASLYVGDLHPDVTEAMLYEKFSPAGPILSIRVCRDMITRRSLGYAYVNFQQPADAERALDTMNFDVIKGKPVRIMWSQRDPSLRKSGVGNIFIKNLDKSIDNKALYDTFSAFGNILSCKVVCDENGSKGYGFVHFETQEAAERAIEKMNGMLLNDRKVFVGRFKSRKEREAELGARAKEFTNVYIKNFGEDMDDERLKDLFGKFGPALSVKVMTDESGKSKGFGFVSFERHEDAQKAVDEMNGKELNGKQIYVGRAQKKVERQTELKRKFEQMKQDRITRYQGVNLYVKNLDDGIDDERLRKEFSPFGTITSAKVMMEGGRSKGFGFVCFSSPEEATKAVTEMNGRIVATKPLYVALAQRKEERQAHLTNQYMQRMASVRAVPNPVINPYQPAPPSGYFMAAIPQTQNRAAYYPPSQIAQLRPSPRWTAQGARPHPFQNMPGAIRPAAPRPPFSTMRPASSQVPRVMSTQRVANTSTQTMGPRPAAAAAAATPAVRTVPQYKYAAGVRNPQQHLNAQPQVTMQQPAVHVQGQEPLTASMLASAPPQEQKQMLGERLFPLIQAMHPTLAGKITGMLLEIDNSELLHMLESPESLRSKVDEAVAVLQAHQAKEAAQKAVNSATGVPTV
Rce1 inhib – yeast Rce1p protease inhibitors, primary screen, biochemical, fluorescence, cell-free homogeneous | yeast membranes, quenched prenylated peptide cleavage fluorescence | calls only | AID 2563, 2010 | actives 0.27% (n = 290,000);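 active = fall in fluorescence gain of 50% or more versus controls, with final raw signal at or below 3038400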;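 note: plate controls were neutral control wells for no effect and wells lacking membranes for full effect; tested at 10 µM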
MT1-MMP act inh – blockers of MT1-MMP proenzyme processing, primary screen, HT1080 RFP-PRO-GFP cells, GFP/RFP fluorescence | GFP/RFP ratio change, % at 20 µM | Matrix metalloproteinase-14 (Homo sapiens), P50281 | GFP/RFP ratio fluorescence, overnight; percent of plate control window, DMSO zero | actives 0.061% (n = 360,000);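 active = GFP/RFP ratio change of at least 30% with cell ATP level not reduced by more than half and red fluorescence within 50% of control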; note: strong numbers were not always called active
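Assay system: HT1080 cells carrying an RFP-PRO-GFP reporter | Dosing: Single dose of 20 µM compound, 1% DMSO final | Incubation: Cells overnight before dosing, compound overnight, 37 °C, 5% CO2 | Evaluation: GFP/RFP fluorescence ratio | Control set: DMSO and RFP-L50D-GFP cell wells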
eIF4H FP inh retest – recorded beside eIF4H FP inh, whose call it bears; inhibition, %; compound at 20 µM; confirmation average;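 mean of two retest wells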
PABP polyA inh retest – recorded beside PABP polyA inh, whose call it bears; inhibition, %; compound at 20 µM; confirmation repeats;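 mean of two retest wells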
MT1-MMP act inh RFP – further read-out of MT1-MMP act inh, marked with its call; RFP signal change, %; measured here: RFP expression control read;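 0 = vehicle wells; hits needed this value within 50% of zero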
Numbers without * were called inactive; i = inactive; . = not tested or not shown; & = joins results of further samples; [ ] = dose if it differs, or a comment.

SMILES	HIV Env fusion	eIF4H FP inh	CSC inhib	Yeast UUG start	PABP polyA inh	Rce1 inhib	MT1-MMP act inh	MT1-MMP act inh RFP	others
COc1ccccc1N1CCN(S(=O)(=O)c2cccc(F)c2)CC1	-33	7	-9	-2	-10	.	-1	3
CN(C)CCNC(=O)c1onc(CSc2nc3ccccc3[nH]2)c1C(=O)NCCN(C)C	41	16	-2	-24	64	i	1	5	eIF4H FP inh retest=0;PABP polyA inh retest=40
CCOC(=O)C1=C(C)NC2=C(C(=O)CCC2)C1c1ccc(N(C)C)cc1 (stereo unspecified)	.	-6	-5	.	8	i	-11	0
CC1CCCCN1C(=O)CSc1nnc(-c2cccs2)o1 (stereo unspecified)	-29	-5	-11	.	6	i	-1	0
Cc1cccc(NC(=O)c2ccccc2C(=O)O)c1	-39	-17	-2	-19	0	i	3	5
O=C1CC(Sc2ccc(Cl)cc2)C(=O)N1c1ccc2c(c1)OCCO2 (stereo unspecified)	-6	-5	-3	-4	3	i	-5	-6
N#Cc1ccc(Nc2nc(-c3ccccc3)cs2)cc1	-137	.	.	-1	.	.	3	-4
COc1ccc(CN(C)CCCn2cnc3c(OCc4ccccc4)ncnc32)cc1	7	.	.	-5	.	.	1	0
O=C(CCS(=O)(=O)c1ccc(Br)s1)Nc1ccccc1Br	14	17	11	-21	-10	i	-1	-2
COc1ccc(CNC(=O)Nc2ccc(C)c(C)c2)cc1	7	-2	-10	.	1	i	1	1
O=C(CSc1nc2nc(-c3cccs3)cc(C(F)(F)F)c2c(=O)[nH]1)Nc1ccc(F)c(F)c1	45	57	104*	.	20	i	-13	-34	eIF4H FP inh retest=16;PABP polyA inh retest=42
CCc1nc(N2CCN(C(=O)c3ccco3)CC2)c(C#N)c2c1COC(C)(C)C2	12	-7	-13	6	21	i	-1	-8
Oc1cccc(Nc2nc(N3CCOCC3)nc(N3CCOCC3)n2)c1	24	8	-10	-6	28	i	-2	1
NC(=O)c1cc(Sc2ccccc2)nc2ccccc12	27	.	.	-9	.	.	-6	-7
Nc1nc2n(n1)C(c1cccs1)CC(c1ccc(Br)cc1)N2 (stereo unspecified)	-58	-4	0	12	32	i	2	1
Cc1ccc(N2CC(NC(=O)C(=O)c3c[nH]c4ccccc34)CC2=O)cc1C (stereo unspecified)	-1	.	-19	.	.	i	0	2
O=C(CN1C(=O)NC2(CCCC2)C1=O)Nc1cc(S(=O)(=O)N2CCOCC2)ccc1OCC(F)(F)F	-13	-8	-9	-6	1	i	2	2
CCC(C)c1ccc(NC(=O)COC(=O)C2=COCCO2)cc1 (stereo unspecified)	-9	-2	-3	-8	-6	i	2	2
Cc1ccc(-c2nnc(OCc3cccnc3)c3ccccc23)cc1	13	-15	10	-15	-6	i	1	-3
CC(C)(C)NC(=O)CSc1nnc(SCC(=O)NC(C)(C)C)s1	-6	-1	-2	2	-6	i	0	3

The last 2 compounds of the section above come first, to join the parts:
SMILES	HIV Env fusion	eIF4H FP inh	CSC inhib	Yeast UUG start	PABP polyA inh	Rce1 inhib	MT1-MMP act inh	MT1-MMP act inh RFP	others
Cc1ccc(-c2nnc(OCc3cccnc3)c3ccccc23)cc1	13	-15	10	-15	-6	i	1	-3
CC(C)(C)NC(=O)CSc1nnc(SCC(=O)NC(C)(C)C)s1	-6	-1	-2	2	-6	i	0	3
COc1ccc(Cl)cc1N1C(=N)SCC1=O	2	-4	-13	.	-5	i	-9	-1
COc1ccc(N2CCN(C(=O)COC(=O)c3ccccc3OCc3ccc(F)cc3)CC2)cc1	5	.	-5	-2	.	i	0	3
COCCCN(C(=O)CSCC(=O)Nc1ccc(C)cc1)c1c(N)n(Cc2ccccc2)c(=O)[nH]c1=O	5	.	.	30	.	.	-3	3
CN/C(=C/[N+](=O)[O-])NCCSCc1ccc(CN(C)C)o1	1	38	-12	-6	-4	i	-1	-2
COc1ccc(NC(=O)[C@H](Cc2c[nH]c3ccccc23)NC(=O)[C@@H]2Cc3ccccc3CN2)cc1	.	-16	-3	-5	-15	.	1	1
Cc1c(Cl)cccc1-n1cnc(=O)c2ccccc21	14	.	-3	.	.	i	3	2
CCn1nc(C(=O)Nc2cccc3ccccc23)c(Cl)c1Cl	-104	8	22	-4	-2	i	2	0
COc1ccc(NC(=O)C2CCN(c3ncnc4c3nc3n4CCCCC3)CC2)cc1Cl	17	-8	7	-15	0	i	0	-13
O=C(CSc1ncn[nH]1)NCCc1ccccc1	-3	-12	9	0	2	i	5	4
O=C(CNS(=O)(=O)c1ccccc1)OCC(=O)c1ccc([N+](=O)[O-])cc1	5	9	-13	-7	9	i	-9	5
CCCNC(=O)c1onc(CSc2ccc(Cl)cc2)c1C(=O)NC(C)C	-18	.	8	-2	.	i	4	2
CC(=O)N1CCN(CC(=O)Nc2ccc3c(c2)CCC3)CC1	24	-2	12	.	10	i	-1	0
COc1ccccc1N1CCN(C(=O)c2sc3nc4n(c(=O)c3c2C)CCC4)CC1	3	.	-18	0	.	i	1	1
Cc1cc2ccccc2n1CCC(=O)O	-7	52*	11	-11	42	i	9	2	eIF4H FP inh retest=80*;PABP polyA inh retest=48
CCn1c(SCC(=O)c2ccc(OC)cc2)nnc1C1CC1	-29	-8	-4	-19	-8	i	2	6
Nc1nnnn1CC(=O)N/N=C/C=C/c1ccccc1	11	-1	-11	-2	0	i	0	-2
CC(C)(C)c1ccc(-c2noc(CCC(=O)Nc3cccnc3)n2)cc1	41	1	.	-46	6	i	-6	-21
Cn1c(=O)c2c(nc(-c3ccccc3)n2C)n(Cc2ccccc2)c1=O	-78	-3	-9	7	-14	i	-1	0
COc1ccc(NC(=O)CCNC(=O)Cn2ccc3ccccc3c2=O)c(OC)c1	0	-6	-6	16	-1	i	-5	-3
Cc1nnc(SCC(=O)Nc2cc(C(C)(C)C)nn2-c2ccccc2)s1	15	-10	-15	-7	0	i	-3	2
COc1ccc(S(=O)(=O)NCC(c2cccs2)N2CCc3ccccc3C2)cc1 (stereo unspecified)	9	.	-14	6	.	i	1	1
CCn1c(CSc2nc(C)cc(C)n2)nnc1SCC(=O)N1CCCc2ccccc21	8	-7	-13	-4	7	i	5	5
CCN(CC(=O)NCc1ccc(Cl)cc1)C(=O)CN1C(=O)NC(C)(c2ccccc2)C1=O (stereo unspecified)	.	-5	-4	-4	-3	i	2	0
O=S(=O)(NCC1CCCO1)c1ccc(S(=O)(=O)N(Cc2ccccc2F)C2CCCCC2)cc1 (stereo unspecified)	59*	.	17	-7	.	i	-6	-6
NC(=O)CSc1nnc(SCc2ccc(F)cc2)s1	-3	1	-9	-11	42	i	1	3
CN(CCOc1ccc(Cl)cc1)C(=O)C1CCN(C(=O)c2ccc(Cl)cc2)CC1	11	-7	13	-5	-7	i	7	-9
CCOC(=O)c1sc(C)c2c(=O)n(CCCN3CCOCC3)cnc12	.	-12	8	-19	-8	i	1	3
COc1ccc(S(=O)(=O)N(C)C[C@H]2Oc3ccc(NS(=O)(=O)c4cccs4)cc3CC(=O)N([C@H](C)CO)C[C@H]2C)cc1	-11[16.7 µM]	.	-7	11&4	.	.	.	.
Cc1cc(NC(=O)COC(=O)c2oc3c(ccc4ccccc43)c2C)no1	-128	-8	-17	-19	8	i	-1	-6
CCN(CC)S(=O)(=O)c1ccc2c(c1)nc(CCC(=O)O)n2C	26	19	-9	-10	1	i	10	8
COc1ccccc1/C(C)=N/NC(=O)c1nnn(-c2nonc2N)c1C(C)C	2	-6	-6	-28	-11	i	0	-5
CN1CCCN(C(=O)c2c(F)cccc2Cl)CC1	8	-4	-14	-20	-2	i	-2	1
Cc1ccccc1N1CCN(CCCCN2C(=O)C3CCCN3C2=O)CC1 (stereo unspecified)	-32	-8	-6	-17	-1	i	0	5
O=C1CCCC(=O)C1Sc1ccc(Cl)cc1	16	-1	-10	.	-6	i	6	7
CC1(c2ccccc2)NC(=O)N(NC(=O)COC(=O)c2cc(Br)ccc2O)C1=O (stereo unspecified)	5	.	-1	11	.	i	-2	-2
COc1ccc(NC(=O)C2=CC=CN3CCS(=O)(=O)N=C23)c(OC)c1	-18	.	-13	-25	.	.	2	5
CCn1cc(C(=O)N2CC=C(c3ccccc3)CC2)c(=O)c2ccc(C)nc21	.	-1	6	-11	-11	i	-2	2
Cc1ccc2nc(C3CCCCC3)c(Cc3ccccc3)n2c1	32	.	.	6	.	.	-1	-10
Cc1ccc(C(=O)N/C(=C\c2ccco2)C(=O)NCCCn2ccnc2)cc1	.	-8	2	0	0	i	0	1
O=C(COc1nncc2ccccc12)Nc1c(F)c(F)c(F)c(F)c1F	-16	-4	-17	.	10	i	1	4
CN(CC(=O)Nc1ccc(Cl)c(C(F)(F)F)c1)C(=O)c1ccc2c(c1)OCCO2	-84	.	-5	5	.	i	2	5
O=[N+]([O-])c1ccccc1CSc1nc2ccccc2o1	.	-9	.	.	34	i	0	5
Cc1ccc(S(=O)(=O)N(CCCO)Cc2cc3c(C)ccc(C)c3[nH]c2=O)cc1	.	2	-7	-1	-3	i	7	1
COc1cc(/C=N/NC(=O)c2ccc(CN(C)S(=O)(=O)c3ccc(C)cc3)cc2)ccc1O	17	6	78*	.	18	i	3	-4
c1ccc(-c2cc(CSc3nc4ccccc4[nH]3)on2)cc1	.	-6	6	-22	-11	i	4	-25
O=C(Nc1ccccc1-c1ccccc1)C(c1ccccc1)c1ccccc1	.	-8	-5	-20	3	i	-3	-6
COc1cccc(-c2nn(C)c3sc(C(=O)N4CCOCC4)cc23)c1	12	-1	-4	-16	9	i	1	0
Cc1ccc(NC(=O)CSc2nc3ccccc3c(=O)n2CCCC(=O)NCC2CCCO2)cc1 (stereo unspecified)	15	-4	-15	-20	-8	i	-2	-3
CC1CCCC(NC(=O)COC(=O)c2ccccc2NC(=O)c2ccco2)C1C (stereo unspecified)	-86	-6	-8	-18	-5	i	-2	0
O=C(COC(=O)c1ccco1)Nc1cc(S(=O)(=O)N2CCOCC2)ccc1Cl	-14	.	-20	-23	.	.	1	4
COc1ccccc1N1CCN(C(c2cccs2)C(C)NC(=O)C(=O)N2CCOCC2)CC1 (stereo unspecified)	-1	-13	-3	-17	6	i	-7	-5
COC(=O)c1ccc(NC(=O)C2CCCCC2C(=O)O)cc1 (stereo unspecified)	-48	-2	-8	-4	0	i	3	5
Cc1nn(C)cc1C(=O)Nc1cc(Oc2ccc(Cl)cc2)cc([N+](=O)[O-])c1	.	-7	-1	-15	-2	i	4	1
CCn1c(/C=C/c2ccccc2[N+](=O)[O-])nc2ccccc2c1=O	-9	-12	-3	-3	5	i	-6	-12
C(=C\c1ccccc1)/CN1CCN(C(c2nnnn2Cc2ccccc2)C2CC2)CC1 (stereo unspecified)	-13	.	.	-6	.	.	5	1
CCOC(=O)C1=CN(Cc2ccc(Br)cc2)S(=O)(=O)N(C)C1C (stereo unspecified)	9	.	.	-36	.	.	6	1
C/C(=C/C#N)Nc1ccc(C)cc1	4	4	-1	.	4	i	2	6
Cc1ccc(C(=O)NCCc2n[nH]c(=S)n2C)cc1	11	-4	-10	.	4	i	2	1
O=C(N/N=C/c1c(F)c(F)c(F)c(F)c1F)c1ccc(Cn2cc(Br)cn2)o1	20	-5	-2	-12	4	i	-5	1

Screening data: PubChem BioAssay, several laboratories
